# Screening data (PubChem BioAssay)
# 2A StopGo: High Throughput Screening for Foot and Mouth Disease Virus Antivirals. AID 1159524, 2015. Potency, µM (doses to about 57.9 µM), without a hit: at the highest dose signal change, negative = less light. 410,000 tested, 1.2% active. human cells with a luciferase reporter of 2A StopGo recoding; control for the full effect not named in the record; active = well fitted falling curve with a large enough effect; inconclusive = small, poorly fitted or top-dose-only effect; inactive = no such curve, though single readings can be large or run the other way; tested in HEK293T cells; also: % is scaled to controls: 0 for no effect and ±100 for the full control effect; nearly all actives have a fitted effect of over 45% in size; luciferase light after 4 h
# MARV entry inh: qHTS for inhibitors of binding or entry into cells for Marburg Virus | Potency, µM (series often up to 37.8 µM), for the others: top-dose activity change, negative = inhibition, hits mostly inhibitors | Marburg virus pseudotyped entry inhibition, cell reporter; control for the full effect not named in the record; about a third of the inactives were read at about 46 µM | 300,000 tested, 1.8% active; active = well fitted inhibition curve with a large enough effect; inconclusive = small, poorly fitted or top-dose-only effect, or effect the other way; inactive = flat fitted curve, though single readings scatter; tested in HEK293 cells; about a fifth of its hits are not listed in these tables; also: % is scaled to controls: 0 for no effect and ±100 for the full control effect; luciferase read-out
# SARS PLpro yeast: qHTS of Yeast-based Assay for SARS-CoV PLP | Potency, µM (series often up to 32.9 µM), for inactives: top-dose activity, positive = growth rescue | 330,000 tested, 0.19% active | S. cerevisiae expressing SARS-CoV PLpro, growth rescue; control for the full effect not named in the record; active means well fitted rising curve with a large enough effect; inconclusive means small, poorly fitted or top-dose-only effect; inactive means no such curve, though single readings can be large or run the other way; also: 0% is about no effect; nearly all actives have a fitted effect of over 55% in size; growth read by luminescence after 48 h
# Cruzain inh noDet: qHTS Assay for Promiscuous and Specific Inhibitors of Cruzain (without detergent) | Cruzipain (Trypanosoma cruzi), P25779 | purified cruzain, Z-FR-AMC fluorescence, no detergent | Potency, µM, for inactives: max response, negative = inhibition, most hits filed as inhibitors | 200,000 tested, 2.3% active;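 also: plate controls were enzyme without inhibitor for no effect and buffer without enzyme for full effect; nearly all actives have a fitted effect of over 40% in size; top concentration of the series not given in the record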
# Target sequence (P25779 123-467 limits assumed): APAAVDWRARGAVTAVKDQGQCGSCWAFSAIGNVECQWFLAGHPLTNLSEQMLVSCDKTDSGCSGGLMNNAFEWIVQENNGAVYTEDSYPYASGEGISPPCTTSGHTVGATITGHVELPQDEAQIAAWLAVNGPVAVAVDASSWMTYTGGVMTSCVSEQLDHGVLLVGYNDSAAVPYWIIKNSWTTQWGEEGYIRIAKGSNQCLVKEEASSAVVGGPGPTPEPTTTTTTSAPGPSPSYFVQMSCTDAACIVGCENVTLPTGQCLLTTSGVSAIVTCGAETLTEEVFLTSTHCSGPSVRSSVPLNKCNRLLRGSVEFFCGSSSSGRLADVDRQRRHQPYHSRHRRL
#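 Purified cruzain at 1.5 nM, pre-incubated 15 min with compound at room temperature in 100 mM sodium acetate pH 5.5, 5 mM DTT, 0.00005% Triton X-100. Reaction started with 2 uM Z-FR-AMC; AMC fluorescence increase over 60 s gives rate.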
# RE007 growth inh: qHTS Assay for Inhibitors of the HIV-1 protein Vpr | 360,000 tested, 0.21% active | Potency, µM (titrated, usually from 92.2 µM), for the others: top-dose activity change, negative = less growth | S. pombe RE007 Vpr strain, BacTiter-Glo ATP luminescence, 24 h; control for the full effect not named in the record; active = well fitted falling curve with a large enough effect; inconclusive = small, poorly fitted or top-dose-only effect; inactive = no such curve, though single readings can be large or run the other way;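 also: % is scaled to controls: 0 for no effect and ±100 for the full control effect; nearly all actives have a fitted effect of over 50% in size; the assay follows cell death caused by Vpr and the record does not say whether a fall means rescue or toxicity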
#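 Fission yeast RE007 carrying one integrated HIV-1 vpr copy, seeded at OD 0.01 in PMG+AL medium with 23 nL pinned compound. Grown 24 h at 30 degrees; viability read by BacTiter-Glo luminescence after 5 min.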
# LASV entry inh: qHTS for Inhibitors of binding or entry into cells for Lassa Virus; Lassa virus pseudotype entry inhibition, cell reporter; control for the full effect not named in the record; Potency, µM (doses to about 37.9 µM), for inactives: top-dose activity change, negative = inhibition, most hits filed as inhibitors; 300,000 tested, 1.2% active; AID 540256, 2011; active means well fitted inhibition curve with a large enough effect; inconclusive means small, poorly fitted or top-dose-only effect, or effect the other way; inactive means flat fitted curve, though single readings scatter; tested in HEK293 cells; also: % is scaled to controls: 0 for no effect and ±100 for the full control effect; nearly all actives have a fitted effect of over 50% in size; luciferase read-out
# NS1 inh: qHTS Assay for Inhibitors of Influenza NS1 Protein Function. S. cerevisiae slowed by influenza A NS1, growth recovery by OD600. Potency, µM (highest dose often 46.1 µM), inactives show at the top dose activity, positive = more growth. 270,000 tested, 0.4% active; active means well fitted rising curve with a large enough effect; inconclusive means small, poorly fitted or top-dose-only effect; inactive means no such curve, though single readings can be large or run the other way; also: nearly all actives have a fitted effect of over 50% in size
#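 In this qHTS, NS1 from influenza A is expressed in budding yeast, where it slows growth. Cells are switched from glucose to 2% galactose medium (pH 6.0, -URA), treated with compound, and growth recovery is read at OD600.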
# Cruzain inh Det: qHTS Assay for Promiscuous and Specific Inhibitors of Cruzain (with detergent) | purified cruzain, Z-FR-AMC fluorescence, 0.01% Triton | 200,000 tested, 0.43% active | Cruzipain (Trypanosoma cruzi), P25779 | Potency, µM, inactives show max response, negative = inhibition, actives largely listed as inhibitors;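 also: plate controls were neutral wells for no effect and buffer without enzyme for full effect; nearly all actives have a fitted effect of over 40% in size; top concentration of the series not given in the record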
#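 Detergent-containing arm of a paired screen for aggregation-based inhibition: 0.01% Triton X-100 present. Cruzain at 1.5 nM cleaved 2 uM Z-FR-AMC at pH 5.5 with 5 mM DTT; AMC fluorescence gain over 60 s measured activity.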
# Active calls of the source: *; ? = inconclusive; · = no result given; & = joins results of further samples; [ ] = remark or other dose. Unless noted, calls follow the shape of the dose curve; as a rule, active = well fitted curve in the direction sought with a large enough effect; inconclusive = small, poorly fitted or top-dose-only effect, or another doubt; inactive = no such curve, though single readings can be large; an effect the other way counts as inactive or inconclusive. Potency is read from the fitted curve at half-maximal effect. Not all compounds are listed; rates above refer to the full screens.
SMILES	2A StopGo	MARV entry inh	SARS PLpro yeast	Cruzain inh noDet	RE007 growth inh	LASV entry inh	NS1 inh	Cruzain inh Det
Cc1ccc(Nc2nc3ccccc3c3nnc(C)n23)c(C)c1	-6.5%	·	·	?	·	?	·	-6.2%
O=C(Nc1ccc(C(=O)O)c(O)c1)c1ccccc1	1.4%	9.0%&9.0%[46.1 µM]	0.2%	·	1.6%	-1.5%[46.1 µM]	-0.6%	·
COc1ccc(CNC(=O)Nc2ccc3c(c2)N(C)C(=O)c2ccccc2S3)cc1OC	?	0.6%[46.1 µM]	·	2.3%	·	-15.9%[46.1 µM]	·	-1.1%
COC(c1ccccc1)(c1ccccc1)C(Oc1nc(C)cc(C)n1)C(=O)O (stereo not given)	1.7%	-2.7%&-2.7%	4.5%	·	-5.5%	?	?	·
COc1ccc(OCC(=O)Nc2cc(-c3nc4ccccc4s3)ccc2C)cc1	-6.4%	·	·	8.5%	·	-11.3%[46.1 µM]	·	-1.2%
Cc1[nH]c2ccccc2c1/C=N/NC(N)=S	-18.4%	?	-0.4%	·	-1.8%	-8.6%[46.1 µM]	-1.0%	·
O=C1Cc2c([nH]c3ccc([N+](=O)[O-])cc23)-c2ccccc2N1	50.2%[activator]	-14.8%	·	·	0.0%	-7.4%[46.1 µM]	·	·
Cc1cccc2nc(-c3ccccn3)c(Nc3ccccc3)n12	?	?	·	-11.2%	·	11.2µM*	·	2.8%
Cc1ccc(NC(=O)Cn2c(=O)n(CCC(=O)N3CCc4ccccc4C3)c(=O)c3ccccc32)c(C)c1	-8.8%	-2.6%[46.1 µM]	·	0.6%	·	-21.8%[46.1 µM]	·	-3.7%
COc1ccc(/C=C/C(=O)O)cc1	-12.8%	·	9.0%	5.4%	7.5%	·	·	-0.8%
Cc1ccccc1C(=O)Nc1cccc(-c2nc3cccnc3s2)c1	0.0%	4.9%[46.1 µM]	·	1.0%	·	-16.0%[46.1 µM]	·	-3.3%
C=C1c2cccc(O)c2C(O)=C2C(=O)[C@]3(O)C(O)=C(C(N)=O)C(=O)[C@@H](N(C)C)[C@@H]3[C@@H](O)[C@H]12	-28.0%	·	0.7%	·	-4.8%	·	8.0%	·
Cn1c(=O)c2c(ncn2CCO)n(C)c1=O	-18.1%&-9.2%	9.7%	1.1%	3.3%&-0.9%	11.2%	·	3.1%	1.6%&-1.3%
CC(=O)Nc1ccccc1	-14.5%&-0.5%	·	4.1%	1.3%&2.8%	-1.1%[18.4 µM]	·	·	5.2%&-2.1%
CCCOC(=O)c1ccc(O)cc1	21.3%	·	8.8%	-8.5%&3.4%	0.2%	·	·	0.8%&0.4%
O=c1cc(-c2ccc(O)cc2)oc2cc(O[C@@H]3O[C@H](CO)[C@@H](O)[C@H](O)[C@H]3O[C@@H]3OC[C@](O)(CO)[C@H]3O)cc(O)c12	-10.9%	-7.5%&-7.5%	-9.7%	-11.1%	4.8%	7.7%	-13.9%	-14.2%
COc1ccc2ccc(=O)oc2c1	28.1%&-9.7%	2.2%	-4.4%	-15.7%&-5.2%	-14.2%	4.3%	6.2%	-5.3%&-2.6%
Cc1cccc(C)c1NC(=O)C1CCCCN1C (stereo not given)	0.1%&4.4%	9.6%&9.6%&9.6%&9.6%&9.6%&9.6%	1.8%	5.8%&0.1%	7.7%[18.4 µM]	2.0%	1.5%	3.5%&3.7%
Cc1cccc(NC(c2ccccc2F)c2ccc3ccc(C)nc3c2O)n1 (stereo not given)	-18.0%	·	·	3.0%	·	14.5%[46.1 µM]	·	-2.2%
Cc1cc(C)cc(OCC2CNC(=O)O2)c1 (stereo not given)	-23.0%&1.5%	·	·	1.4%	5.5%	·	·	6.0%

# Whole records as entered above. Order of screens: 2A StopGo | MARV entry inh | SARS PLpro yeast | Cruzain inh noDet | RE007 growth inh | LASV entry inh | NS1 inh | Cruzain inh Det
# O=c1cc(-c2ccc(O)cc2)oc2cc(O[C@@H]3O[C@H](CO)[C@@H](O)[C@H](O)[C@H]3O[C@@H]3OC[C@](O)(CO)[C@H]3O)cc(O)c12 across the screens: -10.9% | -7.5%&-7.5% | -9.7% | -11.1% | 4.8% | 7.7% | -13.9% | -14.2%
# COc1ccc(CNC(=O)Nc2ccc3c(c2)N(C)C(=O)c2ccccc2S3)cc1OC across the screens: ? | 0.6%[46.1 µM] | · | 2.3% | · | -15.9%[46.1 µM] | · | -1.1%

# More entries.
SMILES	2A StopGo	MARV entry inh	SARS PLpro yeast	Cruzain inh noDet	RE007 growth inh	LASV entry inh	NS1 inh	Cruzain inh Det
COc1ccc(/C=N/NC(=O)c2ccncc2)cc1OC	-2.6%	6.1%	-0.6%	·	3.2%	-14.1%	-2.6%	·
CN(C)CCOc1ccccc1Cc1ccccc1	-25.6%	?	-0.9%	14.3%	21.4%	-23.4%	-5.6%	6.8%
Nc1ncnc2nc[nH]c12	6.8%&-5.2%&-2.7%&29.1%	·	6.2%	15.5%	1.9%	·	-5.3%	-0.7%
CCn1cc(C(=O)O)c(=O)c2cc(F)c(N3CCNCC3)nc21	-22.6%&-1.3%	·	·	6.6%&-6.7%	1.3%[18.4 µM]	·	·	3.8%&-1.5%
Nc1c2c(nc3ccccc13)CCCC2O (stereo not given)	-10.3%&-3.7%	?	·	10.1%&-8.3%	0.8%[18.4 µM]	18.8%	0.7%	-3.0%&-9.9%
CCOc1ccc(NC(=O)Cn2cc(C(=O)c3cccs3)c3ccccc32)cc1	2.8%	-6.0%[46.1 µM]	·	-16.2%	·	-9.2%[46.1 µM]	·	-6.1%
Cc1ccnc(NC(c2cccc(O)c2)c2ccc3ccc(C)nc3c2O)c1 (stereo not given)	-17.0%	2.9%[46.1 µM]	·	11.6%	·	-8.6%[46.1 µM]	·	-7.1%
CCOC(=O)NNc1nncc2ccccc12	-18.8%&19.3%	·	·	-1.1%&0.3%	9.4%[18.4 µM]	·	·	2.8%&-1.6%
CCC(Sc1nc2ccccc2c2nc(CCn3cncc3C)nn12)C(=O)Nc1cccc(OC)c1 (stereo not given)	-1.1%	·	·	-4.9%	·	?	·	1.4%
Cc1cccc(Nc2cc(Cl)nc(SCC(=O)O)n2)c1C	5.4%	·	·	2.6%&-13.5%&-8.6%&4.9%	·	·	-3.9%	4.5%&1.6%&1.5%&-2.6%
O=C(O)CNC(=O)c1ccccc1	-15.8%	·	3.9%	-1.7%	-7.2%[18.4 µM]	·	·	1.1%
CC12CCC(=O)C=C1CCC1C2CCC2(C)C1CC[C@]2(O)C(=O)CO (stereo not given in full)	-8.3%	?	-3.5%	·	-5.0%	-2.7%	-11.6%	·

# Structures from the list above that contain a COOH group (6):
SMILES	2A StopGo	MARV entry inh	SARS PLpro yeast	Cruzain inh noDet	RE007 growth inh	LASV entry inh	NS1 inh	Cruzain inh Det
O=C(Nc1ccc(C(=O)O)c(O)c1)c1ccccc1	1.4%	9.0%&9.0%[46.1 µM]	0.2%	·	1.6%	-1.5%[46.1 µM]	-0.6%	·
COC(c1ccccc1)(c1ccccc1)C(Oc1nc(C)cc(C)n1)C(=O)O (stereo not given)	1.7%	-2.7%&-2.7%	4.5%	·	-5.5%	?	?	·
COc1ccc(/C=C/C(=O)O)cc1	-12.8%	·	9.0%	5.4%	7.5%	·	·	-0.8%
CCn1cc(C(=O)O)c(=O)c2cc(F)c(N3CCNCC3)nc21	-22.6%&-1.3%	·	·	6.6%&-6.7%	1.3%[18.4 µM]	·	·	3.8%&-1.5%
Cc1cccc(Nc2cc(Cl)nc(SCC(=O)O)n2)c1C	5.4%	·	·	2.6%&-13.5%&-8.6%&4.9%	·	·	-3.9%	4.5%&1.6%&1.5%&-2.6%
O=C(O)CNC(=O)c1ccccc1	-15.8%	·	3.9%	-1.7%	-7.2%[18.4 µM]	·	·	1.1%
